Ecoli growth – E. coli growth inhibition, primary screen, OD600; Escherichia coli growth, 23 h; hits give low values; OD600 absorbance (concentration not given with the values); 0.21% of 330,000 active; AID 1053175, 2014;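 active = OD600 absorbance below the run mean of sample wells minus 3.6 SD, in any replicate, cut at about 0.56 in these data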;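 also: stock transfer was 300 nL into about 60 µL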
MLL AF4-AF9 inh – inhibitors of AF4 peptide binding to AF9, primary screen, biochemical, AlphaScreen, biotin-AF4 peptide, FLAG-AF9, single point. Protein AF-9 (Homo sapiens), P42568. inhibition, % at 10 µM. 0.47% of 350,000 active. AID 651704, 2012;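 active = every replicate reaching a set inhibition limit, whatever the replicate mean, cut at about 25% in these data; inconclusive = mean inhibition reaches that limit but some replicates miss it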;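 also: 0% = plate neutral control median and 100% = total signal loss; the record names both 10 and 1 µM as test concentration; the first replicate is given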
Target sequence (P42568 whole entry, looked up): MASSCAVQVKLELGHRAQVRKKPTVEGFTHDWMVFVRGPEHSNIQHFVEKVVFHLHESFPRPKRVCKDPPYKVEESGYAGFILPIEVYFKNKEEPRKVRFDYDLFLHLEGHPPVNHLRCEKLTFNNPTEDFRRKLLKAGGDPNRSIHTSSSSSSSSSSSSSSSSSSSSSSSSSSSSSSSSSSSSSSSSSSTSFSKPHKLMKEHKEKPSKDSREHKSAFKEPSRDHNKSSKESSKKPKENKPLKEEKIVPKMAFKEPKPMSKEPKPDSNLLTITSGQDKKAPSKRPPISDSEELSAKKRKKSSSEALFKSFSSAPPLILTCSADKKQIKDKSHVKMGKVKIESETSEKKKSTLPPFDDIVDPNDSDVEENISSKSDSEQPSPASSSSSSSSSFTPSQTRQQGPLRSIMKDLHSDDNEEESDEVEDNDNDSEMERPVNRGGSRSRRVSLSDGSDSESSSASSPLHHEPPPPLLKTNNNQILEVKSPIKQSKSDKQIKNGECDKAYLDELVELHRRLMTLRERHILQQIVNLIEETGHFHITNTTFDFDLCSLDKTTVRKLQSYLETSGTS
FGF22 binding – binders of human FGF22 protein, primary screen, FGF22 synaptogenesis inhibitor project, biophysical, thermal shift, single point. Fibroblast growth factor 22 (Homo sapiens), Q9HCT0. 1.5% of 340,000 active. calls only at 9.99 µM. recombinant FGF22 thermal shift, SYPRO orange fluorescence; percent of sucrose octasulfate shift, DMSO zero;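 active = melting point raised past a set limit in the mean and every replicate; inconclusive = no clear call; three in four hits are not shown here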
Vif TR-FRET – inhibitors of Vif binding to APOBEC3G peptide, primary screen, biochemical, TR-FRET, GST-Vif 1-94, biotin-A3G peptide, dose response retest (AID 1117319); 0.57% of 260,000 active; TR-FRET GST-Vif / biotin-A3G peptide binding; higher % means a stronger effect; test concentration not given here; strong numbers were not always called active; one-dose inhibition, %; IC50 in µM for titrated hits;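 active = above the screen mean plus three standard deviations and confirmed in dose response; inconclusive = results disagree or hit not tested in dose response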;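 also: Vif residues 1-94 fused to GST binding biotinylated APOBEC3G peptide 110-148; 0% = full assay without inhibitor and 100% = GST in place of GST-Vif; retest series ran down from 100 µM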
HNF4A DNA FP – change in binding of human HNF4A to DNA, primary screen, biochemical, fluorescence polarization, FITC-DNA. Hepatocyte nuclear factor 4-alpha (Homo sapiens), P41235. 1 h. activity change, % at 10 µM. 0.3% of 360,000 active. AID 1224865, 2016; in the data active = activity change above about 30%, passing the limit was not always enough;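 also: controls were the assay level and a saturating level of protein; the project sought stronger binding though the title names inhibitors; some compounds called inactive have numbers as strong as hits; positive values seem to mean higher polarization but the record does not say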
Target sequence (P41235 whole entry, looked up): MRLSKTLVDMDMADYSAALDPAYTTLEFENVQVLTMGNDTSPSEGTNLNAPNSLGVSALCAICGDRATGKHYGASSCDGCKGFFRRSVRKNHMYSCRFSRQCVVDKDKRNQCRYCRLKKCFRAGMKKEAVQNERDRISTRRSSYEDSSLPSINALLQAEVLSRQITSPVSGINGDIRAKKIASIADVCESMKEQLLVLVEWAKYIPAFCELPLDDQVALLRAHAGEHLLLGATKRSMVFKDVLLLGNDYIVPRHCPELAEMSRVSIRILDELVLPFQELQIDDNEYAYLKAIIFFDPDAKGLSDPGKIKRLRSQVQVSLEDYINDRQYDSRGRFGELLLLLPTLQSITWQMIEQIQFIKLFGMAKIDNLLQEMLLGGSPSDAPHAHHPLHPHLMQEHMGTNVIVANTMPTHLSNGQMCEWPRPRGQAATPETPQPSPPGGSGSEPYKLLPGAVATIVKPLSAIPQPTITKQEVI
UCH37 DUB inh – inhibitors of human UCH37 deubiquitinase, primary screen, biochemical, Ub-AMC cleavage, fluorescence; Ubiquitin carboxyl-terminal hydrolase isozyme L5 (Homo sapiens), Q9Y5K5; purified proteasome/UCH37; inhibition, % (concentration not given with the values); 0.33% of 330,000 active;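 active = mean of two replicates above 20%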;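 also: 0% = compound-free wells with enzyme and 100% = wells lacking proteasome; stock transfer was 100 nL into about 20 µL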
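Test system – human UCH37 enzyme supplied as purified proteasome complex · Incubation – 30 min preincubation with enzyme, 25 min cleavage at room temperature · Detection – AMC fluorescence from Ub-AMC cleavage, excitation 355 nm, emission 460 nm · Benchmarks – no-proteasome wells (full inhibition) and compound-free wells (no inhibition)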
RanGTP-Impb inh – inhibitors of RanGTP-importin-beta interaction, primary screen, biochemical, FRET, CFP-Ran, YFP-importin-beta, homogeneous; cell-free CFP-Ran/YFP-importin-beta FRET ratio; inhibition, % (no concentration beside the values); 1.1% of 300,000 active; AID 2216, 2009;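 active = most replicates above 15%; inconclusive = exactly half above 15%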;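 also: 0% = DMSO wells and 100% = Ran loaded with GDP instead of GTP; wells of about 40 µL received 100 nL stock; the first replicate is given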
The depositor's hits bear a star; i = inactive; ? = inconclusive; . = not tested or not shown; + = active, no number; & = joins results of further samples. The list is partial; rates above refer to the full screens.

SMILES | Ecoli growth | MLL AF4-AF9 inh | FGF22 binding | Vif TR-FRET | HNF4A DNA FP | UCH37 DUB inh | RanGTP-Impb inh
CCCC(=O)N1CCC1(C)C(=O)NS(=O)(=O)c1cc2c(cc1C)CCCS2(=O)=O (stereo unspecified) | . | -1.6 | i | . | 3.4 | . | .
N#CCCN(C(=O)COC(=O)c1ccc(CNS(=O)(=O)c2ccc(F)c(Cl)c2)cc1)c1ccc(F)cc1 | 0.704 | . | . | . | 2.4 | 2.3 | 3.1
CCOC(=O)[C@H]1[C@H]2COc3ccc(C)cc3[C@@H]2N2C(=O)CN(Cc3ccc(OC)cc3)C(=O)[C@@]12C | . | . | i | . | 6.2 | 3.1 | .
O=C1CC(O)(C(F)(F)F)Oc2c1ccc1ccccc21 (stereo unspecified) | 0.638 | 5.1 | i | 24.8% | -2.3 | -170.2 | -2.7
COc1ccccc1NS(=O)(=O)c1cc(NC(=O)C(C)(C)C)ccc1N1CCOCC1 | 0.715 | 0.8 | . | 2.6% | -2.3 | 6.8 | 4.4
CN(CC(=O)N1CCN(c2ccccn2)CC1)S(=O)(=O)c1ccccc1 | 0.759 | . | . | 2.5% | 8.3 | -1.4 | 3.9
Cc1cc(O)c2c(c1)C(=O)c1cc(O)cc(O)c1C2=O | 0.616 | 2.7 | i | . | 14.2 | 3.4 | 1.3
CCCc1c(C(=O)N/N=C/c2ccc(OCc3ccc(F)cc3)cc2)nnn1-c1nonc1N | . | -1.0 | i | 0.6% | -1.2 | . | .
CCC(C)NCCOCCSc1ccc(Cl)cc1 (stereo unspecified) | 0.661 | . | . | 0.0% | 2.2 | 2.4 | 2.5
O=C(O)COCC(=O)N1CCN(C2c3ccccc3-c3ccccc32)CC1 | 0.655 | 0.9 | i | . | 2.8 | -3.9 | 3.7
O=C1CCCC2=C1C(c1ccsc1)CC(=O)N2c1ccccc1 (stereo unspecified) | 0.672 | . | . | 70.5% | 1.8 | 1.7 | 1.9
Clc1ccc(CN2CCCCCC2)cc1Cl | 0.616 | 5.4 | i | . | 3.8 | 2.3 | 0.3
Cc1cccc(-c2noc(CCCC(=O)NC3CCCC3)n2)c1 | 0.702 | 1.5 | i | . | 0.4 | 5.0 | 0.9
COc1ccc(C(=O)C2CCCN(S(=O)(=O)C(C)C)C2)c(C)c1 (stereo unspecified) | 0.692 | 0.5 | i | 5.0% | 1.9 | -2.9 | 8.2
CC(C)n1cc(/C=C2/SC(=O)N(CC(=O)Nc3ccc4c(c3)OCO4)C2=O)c2ccccc21 | 0.707 | . | . | 2.3% | -3.3 | -9.8 | 11.7
CC(=O)NCCC(=O)Nc1cc(S(=O)(=O)N2CCCCC2)ccc1Oc1ccccc1 | 0.682 | -0.7 | i | . | -0.4 | 4.3 | -1.2
COc1ccc(C(=O)c2c(C)oc3ccc(O)cc23)c(OC)c1 | 0.642 | -0.9 | i | 3.6% | 1.6 | 4.3 | 0.7
c1ccc(CCN2CN=C(Nc3nc4ccccc4o3)NC2)cc1 | 0.747 | . | . | 28.7% | 0.9 | 5.5 | -3.4
CC(=O)Nc1ccc(S(=O)(=O)NCCc2c[nH]c3ccc(C)cc23)cc1 | 0.662 | 1.0 | + | . | 4.3 | 0.3 | 2.9
CCOC(=O)CSc1nnc(-c2ccccc2OC)o1 | 0.664 | 3.8 | i | -1.0% | 1.3 | 0.5 | 1.4
Cc1ccc(Cn2ncc(Cl)c(Cl)c2=O)cc1 | 0.626 | 2.7 | i | 15.0% | 2.4 | -3.3 | -1.5
CCn1c(SCC(=O)NCC2CCCO2)nc2c(c1=O)SC(C)C2 (stereo unspecified) | 0.703 | 1.1 | i | 0.6% | 1.3 | 16.9 | -6.8
CC(C)CN(C(=O)COC(=O)c1nc(Cl)ccc1Cl)C1CCS(=O)(=O)C1 (stereo unspecified) | 0.692 | 1.2 | i | -2.8% | 3.6 | -0.8 | -0.5
CCN(CC)S(=O)(=O)c1ccc(Cl)c(NC(=O)COC(=O)c2nc3nc(C)cc(C)n3n2)c1 | 0.675 | -1.6 | i | . | 4.7 | 3.1 | .
Cc1c(C)n(Cc2ccccc2)c2ncnc(NN)c12 | 0.675 | 1.7 | i | -3.5% | -2.4 | 2.8 | 1.9
Cn1c(NCc2ccccc2)nc2cc(-c3cccc(C(F)(F)F)c3)sc2c1=O | . | -5.2 | i | . | -2.4 | . | .
CC(C)(C)c1ccc(OCCOCCn2cnc3ccccc3c2=O)cc1 | 0.645 | -3.7 | i | -4.5% | 2.1 | 1.7 | ?
CC1CCN(C(=O)c2ncn3c2c(=O)[nH]c2cccnc23)CC1 | . | 3.7 | i | 6.7% | 0.5 | . | .
Cc1ccc(C(C)C)cc1S(=O)(=O)NCc1cccnc1 | 0.706 | . | . | -2.2% | -1.3 | 0.6 | ?
C#CCOCCOCCOCCNc1nc(N2CCN(C(=O)[C@H]([C@@H](C)CC)n3cc(CCCCN)nn3)CC2)nc(N2CCN(C(=O)[C@H](CCCCN)n3cc(CCC(=O)O)nn3)CC2)n1 | . | 3.0 | i | . | 2.9 | -3.6 | .
O=C(CCNS(=O)(=O)c1ccc2[nH]c(=O)oc2c1)Nc1ccccc1 | 0.641 | . | . | -5.0% | -2.6 | 2.4 | -0.9
CCOc1ccccc1OC(=O)CN1C(=O)c2ccccc2C1=O | 0.625 | 1.1 | i | . | 1.6 | 2.2 | -2.2
C=CCc1cccc(/C=N/n2cnnc2)c1O | . | . | . | 2.8% | -9.1 | . | -9.8
O=C(Nc1n[nH]c(C(F)(F)F)n1)C1CC1 | 0.706 | -3.0 | i | 3.5% | 1.2 | 3.5 | -2.6
Cc1ccc(-c2ccc(/C=N/c3ncn[nH]3)o2)cc1Cl | . | . | . | 1.8% | 2.8 | . | -0.7
C[C@H](CO)N1C[C@H](C)[C@@H](CN(C)C(=O)NC2CCCCC2)Oc2ncc(Br)cc2C1=O | . | 0.7&-4.0 | i | 4.7% | 7.5 | . | .
CN(C)c1ccc(N=Cc2nc(-c3ccccc3)oc2OC(=O)c2cccc(Cl)c2)cc1 | 0.724 | . | . | . | 1.0 | 1.3 | 1.4
O=C(Nc1ccccc1-c1ccccc1)c1ccccc1Br | 0.71 | -1.4 | i | . | 2.2 | 4.2 | 0.1
O=C1c2ccccc2NC(c2cccnc2)N1c1ccccc1F (stereo unspecified) | . | . | . | 3.4% | -2.0 | . | 0.0
COc1cccc(NC(=S)N(Cc2ccc(Cl)cc2)Cc2ccc(C(=O)O)cc2)c1 | 0.667 | -4.9 | i | 0.2% | -5.8 | 3.8 | -3.0

Part of the list above in order of SMILES length, high to low:
SMILES | Ecoli growth | MLL AF4-AF9 inh | FGF22 binding | Vif TR-FRET | HNF4A DNA FP | UCH37 DUB inh | RanGTP-Impb inh
O=C(CCNS(=O)(=O)c1ccc2[nH]c(=O)oc2c1)Nc1ccccc1 | 0.641 | . | . | -5.0% | -2.6 | 2.4 | -0.9
CC1CCN(C(=O)c2ncn3c2c(=O)[nH]c2cccnc23)CC1 | . | 3.7 | i | 6.7% | 0.5 | . | .
CCn1c(SCC(=O)NCC2CCCO2)nc2c(c1=O)SC(C)C2 (stereo unspecified) | 0.703 | 1.1 | i | 0.6% | 1.3 | 16.9 | -6.8

Remaining list, next part
SMILES | Ecoli growth | MLL AF4-AF9 inh | FGF22 binding | Vif TR-FRET | HNF4A DNA FP | UCH37 DUB inh | RanGTP-Impb inh
CC(C)c1ccc(NC(=O)CSc2n[nH]c(=O)n2-c2cccnc2)cc1 | 0.698 | -4.4 | i | . | 0.9 | 16.3 | -2.9
CCCc1c2c(cc3c(=O)cc(C(=O)OCC)oc13)CCCC2 | 0.69 | 1.4 | i | -10.2% | -2.9 | 0.6 | 2.8
CCC1(CC)Cc2ccccc2-c2nc(NN)[nH]c(=O)c21 | 0.666 | -7.3 | . | 3.2% | 2.3 | -3.5 | -2.8
CCOc1ccccc1N(CC(=O)NC(C)(C)C)C(=O)c1ccc(CN2CCOCC2)o1 | 0.735 | . | . | -3.3% | 3.0 | 1.9 | -0.7
CC(OC(=O)/C=C/c1ccccc1Cl)C(=O)NC1CCCCC1C (stereo unspecified) | 0.643 | -30.1 | i | 2.6% | -2.8 | 0.5 | 2.8
Cc1cc(=O)n2nc(N3CCCC3C(=O)Nc3cccc(Cl)c3C)sc2n1 (stereo unspecified) | 0.777 | -2.8 | i | . | 12.8 | 7.0 | -0.2
COc1ccc(C2CC(=O)N(c3ccccc3)C3=C2C(=O)CCC3)cc1 (stereo unspecified) | 0.676 | . | i | ? | 1.2 | 4.0 | 3.8
CN(CC(=O)Nc1c(Cl)cccc1Cl)C(=O)CNC(=O)c1ccc2ccccc2c1 | 0.656 | 6.1 | i | 2.3% | 0.7 | -1.2 | 2.3
CCC1CCCCN1C(=O)COC(=O)c1n[nH]c2ccccc12 (stereo unspecified) | 0.731 | . | . | -1.5% | -2.1 | -1.3 | .
O=C(Nc1c(F)cccc1F)C(c1ccccc1)c1ccccc1 | 0.616 | -1.2 | i | . | -1.2 | 4.1 | -2.5
O=C(c1ccccc1)c1nn(-c2ccccc2)c2nnc(Cc3ccccc3)c(=O)n12 | 0.671 | . | . | 5.7% | 0.4 | 2.3 | 8.9
CCc1nc(N2CCCC(C)C2)c2oc3ccccc3c2n1 (stereo unspecified) | 0.706 | . | . | 0.6% | 2.1 | 1.0 | -2.0
CCC(=O)N1CCc2cc(S(=O)(=O)NC(Cc3ccccc3)C(=O)NC3CCCC3)ccc21 (stereo unspecified) | 0.69 | . | . | 5.0% | 1.6 | 4.0 | 2.1
Brc1cccc(CNc2nc3ccccc3n2CCN2CCCCC2)c1 | 0.586 | 8.1 | i | 3.1% | 1.8 | 5.3 | 1.2
Cc1cccc(-c2nn(-c3ccccc3)cc2C(=O)N(C)CC(=O)Nc2ccc(N3CCOCC3)cc2)c1 | 0.679 | -16.4 | i | -0.7% | -2.6 | -1.5 | -0.5
CCN(CCO)c1nc(SC)nc2c1sc1nc(-c3ccco3)c3c(c12)CCC3 | . | . | . | 27.9% | 0.7 | . | 1.8
CC(C)c1nccn1S(=O)(=O)c1cc(Cl)ccc1Cl | 0.758 | . | . | 15.1% | 1.0 | -2.8 | 8.8
Cc1cc(-c2nnc(-c3cccc(Cl)c3)o2)no1 | 0.665 | ? | i | -9.5% | 2.0 | 2.2 | 1.2
COCCNC(=O)C(c1ccccc1)N(Cc1cccs1)C(=O)Cn1nnc2ccccc21 (stereo unspecified) | 0.694 | . | . | 9.0% | -3.7 | 0.9 | -2.2
CCCCn1c(=O)c(CCC(=O)OCC(=O)NC(C)c2ccccc2)nc2ccccc21 (stereo unspecified) | 0.675 | -3.7 | i | 1.8% | 9.0 | -3.3 | ?
CCn1c(=N)n(CC(O)COc2ccc(C)cc2)c2ccccc21 (stereo unspecified) | 0.635 | -3.9 | i | -0.1% | 5.5 | 1.7 | 0.2
Cc1ccccc1C(=O)NC1CCN(CC(=O)Nc2ccc(Br)cc2)CC1 | . | 2.5 | i | -0.2% | 3.6 | . | 6.1
Cc1ccc(-n2cccn2)c(CN2CCC(CO)(CCc3ccccc3)CC2)c1 | 0.719 | 3.2 | i | -10.8% | -4.2 | 7.3 | -3.2
COc1ccccc1CN1CCC(CNS(=O)(=O)c2cc(-c3onc(C)c3C)ccc2OC)CC1 | 0.672 | 4.6 | i | . | 0.7 | -0.7 | 4.4
O=C(Cc1cccs1)Nc1cccc(-c2nc3ccccc3[nH]2)c1 | 0.603 | . | . | . | -1.8 | -0.6 | 2.1
COCCCOc1cc(NCc2ccccc2)c2ncn(C(C)C)c2c1 | 0.7 | 1.0 | i | . | -2.1 | 0.2 | .
